WNV protease inh: blocks West Nile virus NS2B-NS3 protease activity; z-score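 (tested at a level between 10 and 100 µM)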; 0.18% of 65,000 active; P06935; WNV NS2B-NS3 protease, fluorogenic substrate Ex360/Em465; hits give low values;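 active means z-score at -3 or under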;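 further: score is relative to mean and spread of the compound wells of a plate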
Target sequence (P06935 1371-1501 limits assumed): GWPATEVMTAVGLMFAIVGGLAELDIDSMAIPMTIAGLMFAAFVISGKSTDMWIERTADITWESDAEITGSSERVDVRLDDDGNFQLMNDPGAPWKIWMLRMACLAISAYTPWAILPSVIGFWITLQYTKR
Target sequence (P06935 1502-1679 limits assumed): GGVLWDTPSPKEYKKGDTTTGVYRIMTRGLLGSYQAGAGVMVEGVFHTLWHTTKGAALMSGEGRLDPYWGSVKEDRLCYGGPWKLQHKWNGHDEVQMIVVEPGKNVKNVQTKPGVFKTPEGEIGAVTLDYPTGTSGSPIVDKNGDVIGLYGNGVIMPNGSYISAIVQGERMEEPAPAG
MT1-MMP reporter: inhibitors of MT1-MMP promoter transcription, cell-based, luciferase reporter, luminescence (AID 618); MT1-MMP promoter luciferase reporter cells, luminescence; calls from a first round at 10 µM; hits with a dose series show EC50 in µM; 0.62% of 87,000 active;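 active means over half of the reporter light lost at 10 µM or EC50 under 50 µM; inactive means the rest and hits that failed the dose series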;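 further: actives suppress MT1-MMP promoter-driven transcription so potencies describe inhibitors; HT1080 fibrosarcoma cells; overnight exposure; toxic or luciferase-blocking compounds were not removed from the actives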
Hsc70: Hsc70 inhibitors, probe displacement, primary screen, biochemical, fluorescence polarization (AID 568). 83,000 tested, under 10 active. Hsc70 fluorescence polarization, probe displacement; higher % means a stronger effect; strong numbers were not always called active. displacement, % at 20 µM; hits with a dose series show IC50 in µM;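 active means displacement above 50% without optical interference and an IC50 on retest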;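 further: ATPase domain with a fluorescein-tagged ATP probe; 0% = vehicle and 100% = excess ADP; read after one hour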
Starred values were filed as active, the others as inactive; i = inactive; nt = not tested or not shown.

# | canonical_smiles | WNV protease inh | MT1-MMP reporter | Hsc70
1 | COc1cccc(C(=O)Nc2ccc(N3CCN(Cc4ccccc4)CC3)cc2)c1 | nt | i | -1.6%
2 | Cc1ccc(C)c(N2CCN(c3ncnc4c3cnn4-c3ccccc3)CC2)c1 | 0.44 | i | 1.9%
3 | Cn1c(=O)c2c(nc(N3CCOCC3)n2CC(=O)C23CC4CC(CC(C4)C2)C3)n(C)c1=O | 1.26 | i | -0.2%
4 | Cc1cc(=O)oc(C)c1C(=O)NCCc1ccccc1 | -0.96 | i | 0.4%
5 | COc1ccc(C2SCC(=O)N2c2c(C)n(C)n(-c3ccccc3)c2=O)cc1OC (centres undefined) | nt | i | 1.5%
6 | COc1ccc(NC(=O)Cc2ccccc2)cc1 | nt | i | 3.0%
7 | CCN(CC)C(=O)c1cnn(-c2ccccc2)c1NC(=O)c1cccc(F)c1 | nt | i | 7.3%
8 | CCOCCCNC(=O)C1CCN(S(=O)(=O)CC)CC1 | -0.98 | i | -0.7%
9 | CO/N=C(\C(=O)N[C@@H]1C(=O)N2C(C(=O)O)=C(COC(C)=O)CS[C@H]12)c1csc(N)n1 (stereo in doubt) | -0.58 | i | -3.8%
10 | Cc1ccc2cccc(OC(=O)c3ccc4c(c3)OCCO4)c2n1 | 1.82 | i | -6.5%
11 | CC(=O)Nc1cc2c(=O)n(Cc3ccccc3)c(C)nc2cc1N1CCOCC1 | -0.93 | i | 7.9%
12 | Cc1cc(NC(=O)CCN2C(=O)c3ccccc3C2=O)no1 | 1.35 | i | -5.8%
13 | CC(C)CNC(=S)NNC(=O)c1ccco1 | nt | i | -2.6%
14 | Cc1ccc2cc(CCNC(=O)C(C)C)c(=O)[nH]c2c1 | 0.55 | i | 2.6%
15 | Cc1nc2ncnn2c(C)c1CCC(=O)Nc1ccc(S(=O)(=O)N2CCCCCC2)cc1 | -1.33 | i | 1.6%
16 | COc1ccc(CCNS(=O)(=O)c2ccc3c(c2)oc(=O)n3C)cc1OC | 1.43 | i | -1.0%
17 | CCC(C)(C)n1nnnc1CN1CCC(O)(c2cccc(C(F)(F)F)c2)CC1 | nt | i | -4.5%
18 | CCOC(=O)c1c(NC(=O)c2ccoc2C)sc2c1CCC2 | -0.39 | i | -1.5%
19 | COc1cccc(CNC(=O)CN(C)S(=O)(=O)c2cnc[nH]2)c1 | 0.4 | i | -6.4%
20 | O=C(CSc1nnc(-c2cccnc2)n1Cc1ccco1)N1c2ccccc2Sc2ccccc21 | 0.87 | i | -7.1%
21 | COc1ccc(CN(C(=O)c2cc3ccccc3oc2=O)C2CCCC2)cc1 | nt | i | 8.6%
22 | COc1cc2c(cc1OC)-c1cc(NC3CCCCC3)nc(=O)n1CC2 | 0.51 | i | -3.8%
23 | COc1ccc2c(c1OC)C(=O)N(C(C)C(=O)O)C2=O (centres undefined) | 1.41 | i | 1.2%
24 | N#CC1=C2SCCN2C(=O)C(C#N)C12CCCCC2 (centres undefined) | -0.06 | i | -4.3%
25 | CCn1ncc(Cl)c1C(=O)Nc1ccncc1 | 0.23 | i | -8.1%

(next part)
# | canonical_smiles | WNV protease inh | MT1-MMP reporter | Hsc70
26 | COc1cccc(-c2nc3cc(C)ccc3o2)c1 | 1.23 | 4.41µM* | 5.9%
27 | CCn1c(SCc2ccc(C)cc2)nnc1-c1cnccn1 | 0.48 | i | 1.1%
28 | c1ccc(Cn2nnc3c(Nc4ccc5c(c4)OCO5)nc(C4CC4)nc32)cc1 | 1.99 | i | -0.9%
29 | Cc1noc(C)c1CSc1nnc(-c2cc(Cl)ccc2Cl)n1N | -0.32 | i | 3.9%
30 | Cc1ccccc1N1CCN(C(=O)CN2C(=O)c3ccccc3C2=O)CC1 | 0.95 | i | -4.6%
31 | CCCc1cc(C(=O)Cc2nc3ccccc3s2)c(O)cc1O | nt | i | 9.4%
32 | N=c1ccn(Cc2cccc(Cl)c2)cc1 | -1.4 | i | -0.6%
33 | O=C(COC(=O)CCOc1ccccc1)NCc1ccco1 | -0.62 | i | -3.3%
34 | O=C(CS(=O)CC(=O)N(CC(=O)NC1CCCC1)C1CCCC1)Nc1ccc(F)cc1 (centres undefined) | 0.65 | i | -7.1%
35 | CC(C)Sc1nc(N2CCOCC2)c2c(c1C#N)CC(C)(C)SC2 | -0.68 | i | -3.0%
36 | COc1cccc(N2CCN(C3CC(=O)N(c4ccc(F)c(Cl)c4)C3=O)CC2)c1 (centres undefined) | -0.41 | i | -0.4%
37 | COC(=O)Nc1ccc2c(c1)OCO2 | nt | i | 2.0%
38 | CCn1c(=S)sc2c(=O)n(-c3ccccc3)c(SC)nc21 | -1.03 | i | 2.3%
39 | COc1cccc(C(=O)N2CCCC(c3nc(-c4cccs4)no3)C2)c1 (centres undefined) | 0.6 | i | -5.1%
40 | COc1ccc(C(=O)CSc2nnc(Cn3cnc4ccccc43)o2)cc1 | 0.96 | i | -2.0%
41 | CCC(C)NC(=O)c1c(F)c(F)c(F)c(F)c1F (centres undefined) | nt | i | 5.1%
42 | S=c1[nH]c2ccc(Cl)cc2[nH]1 | -0.26 | i | 1.6%
43 | O=C(Nc1ccc2c(c1)OCO2)C1CCN(S(=O)(=O)c2cccc3cccnc23)CC1 | -1.4 | i | -1.6%
44 | NC(=O)NC(Cc1ccccc1)C(=O)NCC1(N2CCCCC2)CCCCC1 (centres undefined) | -0.82 | i | -1.6%
45 | CCSc1nc2c(c(=O)n1CC)SC(C)C2 (centres undefined) | 0.07 | i | -5.7%
46 | O=C(NCCCn1ccnc1)NC(C(F)(F)F)C(F)(F)F | -0.43 | i | 9.3%
47 | Cc1ccc(N2CC(C(N)=O)CC2=O)cc1C (centres undefined) | -0.82 | i | -2.9%
48 | CC(C)(C)c1ccc(S(=O)(=O)NCCc2ccncc2)cc1 | -1.16 | i | -1.6%
49 | CCOC(=O)c1c(C)[nH]c(C(=O)Cn2nnc(-c3ccc(Cl)cc3)n2)c1C | 1.01 | i | 2.4%
50 | CCCCCc1c(C)nc(N2CCc3ccccc32)[nH]c1=O | 0.83 | i | -0.4%

The final 5 compounds of the section before come first, to join the parts.
# | canonical_smiles | WNV protease inh | MT1-MMP reporter | Hsc70
46 | O=C(NCCCn1ccnc1)NC(C(F)(F)F)C(F)(F)F | -0.43 | i | 9.3%
47 | Cc1ccc(N2CC(C(N)=O)CC2=O)cc1C (centres undefined) | -0.82 | i | -2.9%
48 | CC(C)(C)c1ccc(S(=O)(=O)NCCc2ccncc2)cc1 | -1.16 | i | -1.6%
49 | CCOC(=O)c1c(C)[nH]c(C(=O)Cn2nnc(-c3ccc(Cl)cc3)n2)c1C | 1.01 | i | 2.4%
50 | CCCCCc1c(C)nc(N2CCc3ccccc32)[nH]c1=O | 0.83 | i | -0.4%
51 | Cc1cc(C)n(-c2nc(-c3ccc(Cl)cc3)cs2)n1 | nt | i | 1.6%
52 | COc1cccc(CNC(=O)CSCc2cnn(-c3ccccc3)c2-n2cccc2)c1 | nt | i | 1.7%
53 | COc1cc(CN(C)CC(=O)c2[nH]c(C)c(C(C)=O)c2C)ccc1OC(F)F | 0.58 | i | -5.7%
54 | CC(C)COC(=O)c1nnsc1NC(=O)Nc1ccccc1 | 0.58 | i | -20.3%
55 | COc1cc(NC2c3ncccc3C(=O)N2Cc2ccco2)cc(OC)c1 (centres undefined) | -0.2 | i | 4.1%
56 | CC(=O)N(C(C)=O)c1cccc2c(N(C(C)=O)C(C)=O)cccc12 | -0.1 | i | -1.9%
57 | CNc1nn(-c2cccc(Cl)c2)nc1N | -1.02 | i | -14.7%
58 | Clc1cccc(Cl)c1NC1=NCCC1 | nt | i | 3.6%
59 | CCOC(=O)Cn1c(=O)oc2cc(S(=O)(=O)N3CCC(N4CCCCC4)CC3)ccc21 | -1.64 | i | 1.4%
60 | O=C1c2ccccc2C(=O)N1CNc1ccccc1 | -1.04 | i | 3.2%
61 | Cc1ccc(NC2=NCC(=O)N2Cc2ccc3c(c2)OCO3)c(C)c1 | -0.85 | i | 1.2%
62 | CN1CCN(c2ccc(NC(=O)Cc3ccccc3)cc2)CC1 | 0.38 | i | -4.2%
63 | CC(=O)c1ccc2c(c1)Nc1ccccc1S2 | -1.45 | i | 0.8%
64 | COC(=O)c1cccc(Oc2nc3c(c(=O)n(C)c(=O)n3C)n2Cc2ccc(C)cc2)c1 | 0.38 | i | -8.9%
65 | c1ccc2c(SCc3cn4cccnc4n3)ncnc2c1 | -0.2 | i | -3.7%
66 | COC(=O)[C@H](CC(C)C)NC(=O)N1CCN(c2cccc(C(F)(F)F)c2)CC1 | nt | i | 5.5%
67 | COc1cccc(C(=O)N(Cc2cc3cc(C)ccc3[nH]c2=O)C(C)C)c1 | -1.84 | i | -1.6%
68 | O=C(Oc1cccc2ccccc12)c1ccncc1 | nt | i | -0.2%
69 | CC(=O)c1cccc(NC(=O)CCNS(=O)(=O)c2cccc(C(C)=O)c2)c1 | 1.14 | i | 1.5%
70 | O=C(CSc1nnc(Cc2ccccc2)o1)NCCN1C(=O)CSC1=O | 2.12 | i | 3.3%
71 | Cn1nc(CC(=O)Nc2cccc3ncccc23)c2ccccc2c1=O | -1.61 | i | 9.0%
72 | COc1cc(OC)cc(C(=O)NCCCN2CCOCC2)c1 | nt | i | 1.5%
73 | Cc1cc(NC(=O)c2ccoc2C)no1 | nt | i | -1.2%
74 | CCCN1C(=O)c2cc(C(=O)NCCc3cccc(C)c3)ccc2C1O (centres undefined) | 1.49 | i | 2.8%
75 | CSCCC1NC2(C(=O)Nc3c(C)cc(Cl)cc32)[C@@H]2C(=O)N(C3CCCC3)C(=O)[C@H]12 (some centres undefined) | 0.6 | i | -2.9%

Following part
# | canonical_smiles | WNV protease inh | MT1-MMP reporter | Hsc70
76 | O=C(CN1C(=O)CC(c2ccco2)Sc2ccccc21)NCc1ccc2c(c1)OCO2 (centres undefined) | -0.35 | i | -8.8%
77 | C=CCn1c(COc2cccc3ccc(C)nc23)nnc1SCC(=O)O | 1.56 | i | 1.0%
78 | CCCNC(=O)c1ccc(N(Cc2ccccc2)S(C)(=O)=O)cc1 | nt | i | -1.6%
79 | CCOC(=O)c1ccc(N2C(=O)c3n[nH]c(C)c3C2c2ccco2)cc1 (centres undefined) | -1.92 | i | 3.3%
80 | Cc1cccc(CSc2nncc(=O)[nH]2)c1 | 2.04 | i | -2.1%
81 | CCOC(=O)c1ccc(N=c2sc(C(=O)OC)cc(=O)n2C2CC2)cc1 | 0.07 | i | 8.0%
82 | CCOC(=O)Cn1c(CN2CCc3ccccc3C2)nc2c1c(=O)n(C)c(=O)n2C | 3.42 | i | -1.3%
83 | CCOc1ccccc1NC(=O)NC1CC2CCCC(C1)N2Cc1nnnn1CCc1ccccc1 (centres undefined) | 0.45 | i | 4.1%
84 | O=C(c1ccco1)N1CCN(C(=O)N2CCOCC2)CC1 | 0.93 | i | 0.5%
85 | O=C(O)CSC1CC(=O)N(c2cccc(Cl)c2)C1=O (centres undefined) | 0.51 | i | 8.0%
86 | CN(C)S(=O)(=O)c1ccc(C(=O)NCc2ccccc2)cc1 | 0.96 | i | -4.3%
87 | CCOc1cc(S(=O)(=O)N2CCC(C(N)=O)CC2)ccc1F | nt | i | -2.6%
88 | c1ccc(-c2ccc(-c3nc(-c4cccnc4)no3)cc2)cc1 | 0.6 | i | 2.3%
89 | CC(C)(C)NC(=O)C(c1ccncc1)N(Cc1cccs1)C(=O)Cn1nnc(-c2ccc(F)cc2)n1 (centres undefined) | nt | i | -1.2%
90 | C=CCNc1ccc(F)c(F)c1N1CCCCCC1=O | 2.6 | i | 9.5%
91 | CSCC[C@H](NC(=O)NCCc1ccc(F)cc1)C(=O)O | -0.5 | i | 1.3%
92 | Cc1ccc(CN2CCCNC2=O)cc1 | nt | i | -2.8%
93 | COc1ccc(-n2c(=O)c3ccccc3n(CC(=O)NC3CCCCC3)c2=O)c(OC)c1 | -0.53 | i | -2.3%
94 | COc1ccccc1CNC(=O)CN1CCC(NC(=O)c2ccccc2F)CC1 | nt | i | 5.5%
95 | O=C(NCCc1ccccc1)C(=O)NC1CCCCC1 | nt | i | 2.3%
96 | COC(=O)C(O)(NC(=O)OCc1ccccc1)C(F)(F)F (centres undefined) | -0.18 | i | 2.8%
97 | O=C(N1CCCCCC1)N1CCN(S(=O)(=O)c2ccccc2)CC1 | nt | i | 1.3%
98 | Cc1cc(C)cc(CC2CC(=O)N(c3ccc(Cl)cn3)C2=O)c1 (centres undefined) | nt | i | 1.2%
99 | CCOC(=O)N1CCN(Cc2nc(-c3ccc(OC)cc3)no2)CC1 | 0.28 | i | -6.1%
100 | CCOc1cc(S(=O)(=O)NCc2ccccc2)c(OCC)cc1-n1cnnn1 | nt | i | 0.4%

Following part:
# | canonical_smiles | WNV protease inh | MT1-MMP reporter | Hsc70
101 | Cc1ccc(NC(=O)C2CCC(=O)N2)cc1C (centres undefined) | nt | i | 8.4%
102 | CC(C)C(=O)Nc1ccc(NC(=O)c2ccccn2)cn1 | 0.49 | 6.27µM* | -1.3%
103 | Cc1c(N=Cc2ccc[nH]2)c(=O)n(-c2ccccc2)n1C | -1.32 | i | 6.8%
104 | S=c1[nH]nc(Cc2c[nH]c3ccccc23)o1 | -1.27 | i | -6.3%
105 | CC(=O)c1c(C)[nH]c(C(=O)Nc2cc(C)cc(C)c2)c1C | nt | i | 4.2%
106 | COc1ccccc1C(=O)Oc1ccc(C(C)(C)C)cc1 | nt | i | -2.6%
107 | Cc1ccc(-n2ncc(C#N)c2/N=C/N2CCN(C)CC2)cc1 | -0.31 | i | 0.8%
108 | CCC(=O)N1CCc2cc(S(=O)(=O)NCCC(=O)NC3CCCc4ccccc43)ccc21 (centres undefined) | 1.94 | i | 3.8%
109 | Cc1ccc(C)c(S(=O)(=O)Nc2ccc(O)cc2)c1 | -0.83 | i | 5.0%
